Mtb MenB inh: Mtb MenB enzyme inhibition | P9WNP5 | MenB enzyme assay, absorbance read-out; some hits fall short of the stated cut | inhibition, %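 (about 12 µg/mL by stock and volumes)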 | 100,000 compounds, 0.43% hits | AID 540299;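 active = mean of two replicates above 30%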;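 also: 0% = no compound and 100% = wells with inactive enzyme; the first replicate is given; strong numbers were not always called active; inactives centre near -10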
Target sequence (P9WNP5 whole entry, looked up): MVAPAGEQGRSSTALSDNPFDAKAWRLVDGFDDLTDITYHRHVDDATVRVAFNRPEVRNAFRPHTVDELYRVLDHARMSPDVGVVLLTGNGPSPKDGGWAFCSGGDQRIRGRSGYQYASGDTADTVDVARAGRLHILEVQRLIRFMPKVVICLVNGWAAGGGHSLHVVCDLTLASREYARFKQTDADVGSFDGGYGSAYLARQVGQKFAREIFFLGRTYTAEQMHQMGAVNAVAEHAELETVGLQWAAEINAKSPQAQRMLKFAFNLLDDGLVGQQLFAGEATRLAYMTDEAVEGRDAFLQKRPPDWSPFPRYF
PV pol inh: poliovirus RNA polymerase inhibition; P03300; poliovirus polymerase elongation, fluorescence polarization; stronger effect = lower value; % elongation, % (compound at 16.7 µg/mL); 150,000 compounds, 0.66% hits; in the data active = % elongation below about 90%; also: some results filed as inactive read as strong as hits
Target sequence (P03300 1749-2209 limits assumed): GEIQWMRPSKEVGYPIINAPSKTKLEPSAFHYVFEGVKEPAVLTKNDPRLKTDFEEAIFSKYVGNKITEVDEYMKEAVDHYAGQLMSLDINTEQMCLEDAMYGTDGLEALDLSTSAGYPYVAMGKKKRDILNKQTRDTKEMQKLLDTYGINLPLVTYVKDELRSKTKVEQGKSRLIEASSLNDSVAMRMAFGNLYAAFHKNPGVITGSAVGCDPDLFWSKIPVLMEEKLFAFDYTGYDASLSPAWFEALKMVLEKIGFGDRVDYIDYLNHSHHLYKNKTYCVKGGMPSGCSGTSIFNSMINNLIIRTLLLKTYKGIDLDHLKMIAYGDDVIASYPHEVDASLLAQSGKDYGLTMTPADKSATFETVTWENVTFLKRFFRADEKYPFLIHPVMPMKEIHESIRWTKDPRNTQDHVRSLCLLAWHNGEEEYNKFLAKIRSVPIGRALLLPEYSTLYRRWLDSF
MbtI inh: MbtI salicylate synthase inhibition; purified MbtI enzyme, fluorescence intensity read-out; inhibition, %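 (about 17 µg/mL by stock and volumes)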; 100,000 compounds, 0.89% hits; AID 493033;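 active = above 50% in both replicates, above 80% if mildly self-fluorescent; inactive = the rest, strongly fluorescent compounds included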;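 also: 0% = mean of negative and 100% = mean of positive controls; one replicate is shown; some compounds called inactive have numbers as strong as hits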
PV pol inh intensity: further read-out of PV pol inh, marked with its call; % elongation; measured here: total intensity read-out; formula for this scale not given here;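 total fluorescence in place of polarization; lower means less elongation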
Numbers without * were called inactive; . = no result given; & = joins results of further samples.

No.	SMILES	MbtI inh	Mtb MenB inh	PV pol inh intensity	PV pol inh
1	CCOC(=O)C1=CN(Cc2ccc(F)cc2)C=C(C(=O)OCC)C1c1ccc(C(F)(F)F)cc1	100	-57	103	103
2	CC1(C)C(C)(C(=O)O)C12CCC2C(=O)NCc1ccco1 (configuration not stated)	-4	-27	103	102
3	S=C(Nc1cccnc1)N(CCc1ccccc1)Cc1ccccc1	.	-17	106	105
4	O=C(COc1ccc2c(c1)OCO2)NCCC1=CCCCC1	-25	-1	113	105
5	CCc1ccc(OCC(N)=O)cc1	0	-13	104	99
6	COc1ncnc(NS(=O)(=O)c2ccc(N)cc2)c1OC	-6	-1	101	98
7	Cc1cc(C)c(C#N)c(=O)[nH]1	99	-19	112	111
8	COc1ccc(Cn2ccc3nc4ccn(Cc5ccc(OC)cc5)c(=O)c4cc3c2=O)cc1	-5	7	104	101
9	O=C(CN1CCN(c2ncnc3scc(-c4ccc(Cl)cc4)c23)CC1)NC1CC1	-5	-6	112	105
10	CCN1CCN(C(=O)/C(C#N)=N/Nc2cccc3c(=O)[nH][nH]c(=O)c23)CC1	0	-141	95	90
11	CN(C(=O)COC(=O)c1ccc(=O)[nH]c1)C1CCCCC1	-4	-10	113	107
12	O=S(=O)(/C=C/c1ccccc1)N1CCN(Cn2cnc3ccccc32)CC1	11	-7	101	103
13	CN(C)CCCN1C(=O)CSC1c1ccc(Cl)c(Cl)c1 (configuration not stated)	-8	9	100	103
14	Nc1ncc(-c2ccccc2)n1CC1CCCO1 (configuration not stated)	.	-5	115	108
15	CSc1cccc(NC(=O)c2ccc3snnc3c2)c1	2	-16	98	99
16	COC(=O)CC1Nc2ccccc2SC1=O (configuration not stated)	-3	-7	101	102
17	O=C(NCc1cc(F)cc2c1OCOC2)c1ccc2nonc2c1	-5	-10	106	104
18	CCCN(CCC)C(=O)c1ccc(NC(=O)C2=CNCCO2)cc1	15	-2	103	102
19	CCCCNC(=O)Nn1c(=O)[nH]c2ccccc2c1=O	107	1	109	99
20	O=C1NCCc2c(OCC(=O)N3CCCC3)cccc21	-4	-23	95	104
21	CCN1CCC(N(Cc2cccc(OC)c2)C(=O)NC23CC4CC(CC(C4)C2)C3)CC1	-16	-2	107	101
22	O=C(CN1CCOCC1)N1c2ccccc2Sc2ccc(Cl)cc21	1	-17	101	100
23	O=C(COC(=O)c1n[nH]c2ccccc12)NC1CCCCC1	59	.	107	103
24	CC(=O)Nc1cccc(-c2nc3ccccc3o2)c1	88	-21	103	103
25	N#Cc1ccc(NC(=O)Nc2cccc3ccccc23)cc1	150	-20	95	102
26	COc1ccc(/C=C2/SC(=S)N(CCC(=O)O)C2=O)cc1	.	-300	117	105
27	CCOc1ccc(CC2C(=O)NC(=O)N(Cc3ccccc3)C2=O)cc1 (configuration not stated)	.	-3	102	96
28	CC(C)(C)C(=O)Oc1ccccc1OC(=O)c1ccccc1	-11	.	106	104
29	CC1CCCC(C)N1NC(=S)Nc1ccccc1 (configuration not stated)	-8	12	104	101
30	Cc1nn(-c2ccccc2)c2sc(C(=O)N(C)C(C)C(O)c3ccccc3)cc12 (configuration not stated)	-5	.	104	102

For reference, part of the list above:
No.	SMILES	MbtI inh	Mtb MenB inh	PV pol inh intensity	PV pol inh
21	CCN1CCC(N(Cc2cccc(OC)c2)C(=O)NC23CC4CC(CC(C4)C2)C3)CC1	-16	-2	107	101
22	O=C(CN1CCOCC1)N1c2ccccc2Sc2ccc(Cl)cc21	1	-17	101	100
23	O=C(COC(=O)c1n[nH]c2ccccc12)NC1CCCCC1	59	.	107	103

The list continues:
No.	SMILES	MbtI inh	Mtb MenB inh	PV pol inh intensity	PV pol inh
31	FC(F)(F)c1ncncc1-c1nnnn1-c1ccccc1	-1	11	97	104
32	Cn1cccc1C(C(=O)NC1CCCCC1)N(C(=O)Cc1cccs1)c1ccccc1 (configuration not stated)	-6	-10	102	101
33	Cc1ccc2[nH]c(=O)nc(-c3ccccc3)c2c1	-13&-9	.	95	101
34	CNS(=O)(=O)c1cccc(C(=O)N2CCN(C/C=C/c3ccccc3)CC2)c1	-21	1	108	101
35	CCOCCCNc1ccc(-c2ccccc2)nn1	1	-14	102	103
36	O=C(O)c1ccc(COc2ccccc2)o1	.	4	108	100
37	S=C1Nc2cccc3cccc(c23)N1	63	-35	94	100
38	Oc1ccccc1-c1cc(-c2ccc3c(c2)OCO3)cc(-c2ccccc2)n1	-1	-6	102	101
39	OC(c1ccc(Br)cc1)C12CN3CN(CN(C3)C1)C2 (configuration not stated)	-16	-17	101	102
40	O=C(Nc1cc(Cl)cc(Cl)c1)c1cc(S(=O)(=O)N2CCCc3ccccc32)ccc1F	-8	-15	97	103
41	O=C(CC1(c2ccc(Cl)cc2)C(=O)c2ccccc2C1=O)N1CCCCC1	.	0	117	110
42	CC(=O)Nc1ccc(C(=O)CSc2ncn(-c3ccccc3)n2)cc1	8	4	102	103
43	O=C(CC1S/C(=N\N=C2CCCCCCC2)NC1=O)Nc1ccccc1 (configuration not stated)	-4	-12	100	100
44	C#CCOC(=O)Nc1cc(C)n(-c2ccccc2)n1	2	-10	105	102
45	CCOC(=O)c1ccc2[nH]c3c(c2c1)CCCC3C(=O)OCC (configuration not stated)	.	-25	110	104
46	Cc1cccc(CS(=O)(=O)Cc2ccc(C(=O)NCc3cccs3)o2)c1	-21	-3	101	98
47	Cc1noc(C)c1-c1nc(-c2cccc(C(F)(F)F)c2)no1	-5	2	109	102
48	CC(=O)NCc1ccc(S(=O)(=O)NC2CCN(Cc3ccccc3)CC2)cc1	3	20	100	105
49	CCC(C)NC(=O)C1CCCN(S(=O)(=O)c2ccc(C)c(Cl)c2)C1 (configuration not stated)	-4	-46	103	103
50	O=C(/C=C/c1ccccc1)Oc1ccc2oc(=O)sc2c1	-10	-31	98	99
51	O=c1c2c(nc(NCCO)n1Cc1ccccc1)-c1ccccc1CC21CCCCC1	.	-17	101	110
52	Cc1cccc(OCc2nnc(SC(C)C(=O)c3c(C)[nH]c4ccccc34)o2)c1 (configuration not stated)	5	-23	101	107
53	COC(=O)c1ccc2c(=O)n(CCC3=CCCCC3)c(SCc3ccc(Cl)cc3)nc2c1	3	5	105	105
54	CNC(C)[C@@H]1CC[C@@H](N)[C@@H](OC2[C@@H](N)C[C@@H](N)[C@H](OC3OC[C@](C)(O)[C@H](NC)[C@H]3O)[C@H]2O)O1 (some centres not stated)	-6	2	101	99
55	CC(=O)NS(=O)(=O)c1ccc(Br)cc1	-2	-2	106	102
56	Cc1c(C(N)=O)cc([N+](=O)[O-])cc1[N+](=O)[O-]	-9	6	105	101
57	CCc1cccc2c(C=C(C#N)C#N)cn(CC(=O)NC3CCCC3)c12	-8	5	101	99
58	Cc1cccn2c(=O)c(/C=C3\SC(=S)NC3=O)c(NCC3CCCO3)nc12 (configuration not stated)	-5	-19	113	105
59	CC(C(=O)NCC1CCCO1)N(C(=O)c1snc(C(N)=O)c1N)c1cccc(F)c1 (configuration not stated)	-66	-49	101	102
60	Clc1cccc(Nc2nc3ccccc3c3nncn23)c1	-15	-1	101	100
61	CSc1n[nH]c(N)c1C#N	-6	-67	103	103
62	COC(=O)c1cc(S(=O)(=O)NCCN2CCN(c3ccccc3F)CC2)c[nH]1	14	11	99	100
63	CCCNS(=O)(=O)c1cccc(C(=O)N2CCN(c3cccc(OC)c3)CC2)c1	-2	-20	116	113
64	COc1cccc(/C=C2/NC(=O)N(Cc3ccc(F)cc3)C2=O)c1	0	-3	102	101
65	c1ccc2c(OCc3nc4ccccc4[nH]3)cccc2c1	0	-10	109	102
66	Brc1cccc(-c2cn3nc(C4CC4)sc3n2)c1	-3	-3	100	103
67	CCc1ccc(-c2csc3nc4ccccc4n23)cc1	-6	-5	102	99
68	Cc1ccc(NC(=O)CN=C2NC(C)(C)Cc3ccccc32)cc1	-11	-35	105	102
69	O=C(NCc1noc2ccccc12)Nc1nccs1	-9	-5	101	101
70	CC(C)CN(CC(C)C)Cn1nc(C2COc3ccccc3O2)oc1=S (configuration not stated)	-4	1	101	104
71	COc1ccc(N(C)C(=O)CCS(=O)(=O)c2cccc3nonc23)cc1	7	-7	102	100
72	CN1CCCNc2nc3ccccc3nc21	-48	-55	110	102
73	O=C(Nc1nncs1)Oc1ccccc1	-2	28	101	101
74	O=C(COc1ccc(Cl)c2cccnc12)c1ccc2c(c1)OCCO2	-3	-1	107	103
75	CC(C)(C)c1cc(NC(=O)c2nn3c(C(F)(F)F)cc(-c4ccccc4)nc3c2Br)no1	-29	-33	102	101
76	CC(C)(C)c1ccc(C(=O)Nc2ccc(S(N)(=O)=O)cc2)cc1	-15	.	96	100
77	CCn1c(C)nc2cc(C(=O)N/N=C/c3ccccc3)ccc21	28	9	107	98
78	CN=c1scc(C)n1/N=C/c1ccc(O)cc1	1	-77	108	103
79	CN1CCC/C1=c1\c(=O)n(-c2ccccc2)n2c(-c3ccc(Cl)cc3)cnc12	8	3	96	103
80	O=C(O)c1cc2oc3ccccc3c3ccccc3oc2cc1C(=O)Nc1ccc(F)cc1	-33	-9	105	102
81	Cn1c(=O)c2c(c3ccccc31)OC(=O)CC2c1cccnc1 (configuration not stated)	-1	8	100	101
82	O[C@@H]1[C@@H](O)[C@H](Nc2ccccc2)OC[C@H]1O	.	-23	174	148
83	CCN(CC)C(C)CN1c2ccccc2Sc2ccccc21 (configuration not stated)	-11&1	-7&1	100&101	101&99
84	COC(=O)c1[nH]c(Cn2cc(S(=O)(=O)N3CCCC3)ccc2=O)c(C(=O)OC)c1C	3	-16	118	108
85	CC(OC(=O)CSc1nnc(-c2ccccc2)n1-c1ccccc1)C(=O)Nc1ccccc1C#N (configuration not stated)	-1	-26	102	107
86	COc1cc(/C=C2/C(=O)NN(c3ccc(Cl)cc3)C2=O)ccc1OC(=O)c1ccco1	99*	-42	102	101
87	CC(C)CCC(=O)Nc1ccc(S(=O)(=O)N2C(C)CCCC2C)cc1 (configuration not stated)	-10	-3	109	104
88	COc1ccc(C)cc1NC(=O)c1c(C)nc2ccccn12	46	-42	102	105
89	O=C1CCOc2ccc(Cl)cc21	107	-15	103	102
90	COc1ccc(C(=S)NCC2CCCO2)cc1 (configuration not stated)	36	-25	100	99

3 compounds from above, ordered by count of non-hydrogen atoms, rising:
No.	SMILES	MbtI inh	Mtb MenB inh	PV pol inh intensity	PV pol inh
78	CN=c1scc(C)n1/N=C/c1ccc(O)cc1	1	-77	108	103
66	Brc1cccc(-c2cn3nc(C4CC4)sc3n2)c1	-3	-3	100	103
69	O=C(NCc1noc2ccccc12)Nc1nccs1	-9	-5	101	101

Other compounds follow:
No.	SMILES	MbtI inh	Mtb MenB inh	PV pol inh intensity	PV pol inh
91	Cc1ccc(C2(C(F)(F)F)NC(=O)N3CCN=C3S2)cc1 (configuration not stated)	16	-8	105	102
92	COc1ccc(C)cc1S(=O)(=O)Nc1ccccc1	-1	-33	100	99
93	CCc1cc(C(=O)NCCN(C)C)cs1	-6	-24	101	100
94	O=c1oc2ccccc2cc1-c1ccc(Cl)cc1	.	1	92	97
95	COC(=O)c1sccc1NS(=O)(=O)c1ccc(C(=O)OC)n1C	-8	-22	113	107
96	COC(=O)c1ccc(-c2ccco2)n1Cc1ccccc1	4	-3	108	102
97	Cc1ccc(CN(C)C(=O)CCN2c3ccccc3Sc3ccccc32)o1	-2	5	103	102
98	NC1=NC(=O)C(CC(=S)Nc2ccc(N3CCCCC3)cc2)S1 (configuration not stated)	9	-2	110	108
99	CCOC(=O)c1sc(N)c(C#N)c1COC(=O)C12CC3CC(CC(O)(C3)C1)C2	-6	-13	235	45
100	CC1(C)Cc2snc(C(N)=O)c2C1	3	.	96	102
101	Cn1cnc2c1c(=S)[nH]c(=O)n2Cc1ccccc1	.	-27	89*	82*
102	CCOC(=O)CNc1nnc(SCC(=O)OCC)[nH]c1=O	-12	2	99	102
103	Cc1ccc(NC(=S)Nc2ccccc2C)c(C)c1	-7	-15	107	104
104	NC(=O)c1ccccc1NC(=O)CC(c1ccccc1)c1ccccc1	.	0	105	105
105	CC(C(=O)NCC1CCCCC1)N1CCN(S(=O)(=O)c2ccccc2F)CC1 (configuration not stated)	0	-41	104	106

High-throughput results deposited in PubChem by ICCB-Longwood Screening Facility, Harvard Medical School.
